NPYLR7 agonist: activates Aedes aegypti NPYLR7 receptor. HEK293T NPYLR7/Galpha15, GCaMP6s calcium fluorescence. activation, % at 10 µM. 270,000 compounds, 0.15% hits. AID 1259423; in the data active means activation above about 40%;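 further: 0% = vehicle and 100% = reference agonist at the receptor; some compounds past the cut are filed as inactive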
NPYLR7 agonist max-min: recorded beside NPYLR7 agonist, whose call it bears; activation, %; measured here: Max-Min RFU normalised activation; some inactives read as strong as hits;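 span of the calcium signal over five minutes; 0% = vehicle and 100% = native peptide agonist; compound fluorescence can raise it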
The depositor's hits bear a star; & = joins results of further samples.

SMILES | NPYLR7 agonist | NPYLR7 agonist max-min
CC(C)COC(=O)N1[C@@H](c2ccco2)[C@@H](CO)C[C@]12CCCCNC2=O | 6 | 14
CC(C)CN(Cc1nccn1Cc1ccc(F)cc1)C(=O)c1ccc(Cl)cc1 | 18 | 29
Fc1ccccc1-n1cnnc1SCc1cc2c(cc1Br)OCO2 | 7 | 10
C=CCn1c(=O)c2c(nc3n(-c4ccccc4F)c(C)cn23)n(C)c1=O | 18 | 7
CCC1CN(CCC(=O)N(C)Cc2ccc(OC)c3ncccc23)Cc2cc(OC)ccc2O1 (centres undefined) | -5&26 | -4&6
CCOC(=O)c1c(CN2CCC(C)CC2)n(-c2ccccc2)c2cc(Br)c(O)cc12 | -4 | -6
COc1cc(OC)cc(-c2cc3c(Nc4cccc(S(C)(=O)=O)c4)nccc3n2C)c1 | 7 | 5
CC(NC(=O)C1CCN(c2ccc3nnc(C(F)(F)F)n3n2)CC1)C(=O)N1CCOCC1 (centres undefined) | -6 | -7
O=C(Oc1ccccc1)OC1CCOC2COC(c3ccccc3)OC21 (centres undefined) | 3 | 2
O=C(Nc1cccc(-c2cccc(Cl)c2)c1)C1CCN(C(=O)CCn2cnnn2)CC1 | 2&-3 | -2&-2
CCOc1cccc2cc(C(=O)NC(C)=O)c(=Nc3ccccc3OC)oc12 | -14 | -17
CC(C)(C)C(=O)Nc1ccnn1C1CCN(C(=O)[C@@H]2C[C@H]2c2ccccc2)CC1 | 4 | 5
O=C(CCNC(=O)c1ccccc1)Nc1ccc2c(c1)OC(F)(F)O2 | 6 | 6
COCCN(Cc1ccc(OS(=O)(=O)c2cccc(C(F)(F)F)c2)cc1)C(=O)C(C)(C)C | 8 | 14
C/C=C(\C)C(=O)N1CCN(c2cc(S(=O)(=O)N(C)CCc3ccc(OC)c(OC)c3)ccc2OC)CC1 | 26 | 21

The last 2 compounds of the part above come first, to join the parts.
SMILES | NPYLR7 agonist | NPYLR7 agonist max-min
COCCN(Cc1ccc(OS(=O)(=O)c2cccc(C(F)(F)F)c2)cc1)C(=O)C(C)(C)C | 8 | 14
C/C=C(\C)C(=O)N1CCN(c2cc(S(=O)(=O)N(C)CCc3ccc(OC)c(OC)c3)ccc2OC)CC1 | 26 | 21
Cc1ccccc1NC(=O)c1c2c(nn1C1CCS(=O)(=O)C1)CCC2 (centres undefined) | 12 | 11
COc1ccc(C)cc1N1CCN(C(=O)c2cccc(Br)c2)C(C)C1=O (centres undefined) | -12 | -11
C=CCNc1oc(-c2ccc(COc3ccccc3C)o2)nc1C#N | -1 | 20
COc1cccc(CN(Cc2ccc3c(c2)OCO3)CC(O)COc2ccccc2)c1OC (centres undefined) | 6 | 20
Cc1noc(C)c1C(=O)Nc1nnc(-c2ccc(C(C)C)cc2)s1 | 0 | -2
Cc1nc(-c2ccc(Cl)cc2)nc(N2CCN(C(=O)Nc3ccc(C(F)(F)F)cc3)CC2)c1Cc1ccccc1 | -4 | -1
CC(C)C(=O)Nc1ccc2oc(C(C)C)nc2c1 | 15 | 24
Cc1cccnc1CC(C)NC(=O)CSCc1ccccc1Cl (centres undefined) | -1 | -5
Cc1ccc(NC(=O)N2CCc3ccccc3C2c2ccc(C)cc2)cc1 (centres undefined) | 20 | 7
COCC(=O)Nc1cccc(-c2cn3nc(OC)ccc3n2)c1 | -19 | -24
CCn1cnc(NC(=O)N(C)Cc2ccc(OC)cc2)n1 | 8 | 0
CS(=O)(=O)Oc1ccc(CN(Cc2ccco2)C(=O)c2ccc(Br)cc2)cc1 | 16 | 20
COc1ccc(CCN2CC(NC(=O)Nc3ccccc3OC)CC2=O)cc1 (centres undefined) | 18 | 13
C[C@@H](NC(=O)CCC(=O)N1CCc2ccccc2C1)C(C)(C)C | -2 | -5
O=C1/C(=C/c2ccc(-c3ccc([N+](=O)[O-])cc3)o2)C=C(c2ccccc2)N1c1ccccc1 | -1 | 3
Cc1ccc(C(C)(C)C)cc1S(=O)(=O)N1CCC(C(=O)NC2(C)CCS(=O)(=O)C2)CC1 (centres undefined) | 4 | 5
Cc1cccn2c(=O)nc(SCc3ccccc3)nc12 | 2 | -2
COCCN(CC(=O)N(CCc1c[nH]c2ccccc12)Cc1ccc(F)cc1)C(=O)c1ccc(Cl)cc1Cl | 17 | 16
Cc1nc(CN(C)Cc2cc(C(C)(C)C)ccc2O)no1 | -5 | -5
CCOC(=O)c1nn(-c2ccccc2C)c(=O)cc1NCc1ccc(C)cc1 | 6 | 2
CSc1nc(C(=O)O)c2ccccn12 | -9 | -5
COc1cc(CC(=O)N2CCC3(CC2)OCc2cc(-c4ccc(C)cc4C)ccc2O3)cc(OC)c1OC | -30 | -32
Cc1ccc(-c2nc(C(=O)NN=C3N=NC(C)C(=O)N3)cs2)cc1 (centres undefined) | 0 | -3
O=C1C2C3C=CC(C3)C2C(=O)N1c1ccc(Cl)cc1Cl (centres undefined) | 8 | 4
CCn1cc(S(=O)(=O)N2CC(c3cccnc3)C2)c(C)n1 | 6 | -2
Cc1ccc(C)c(NC(=O)CCNC(C)Cn2nc(C)cc2C)c1 (centres undefined) | 19 | 9
CC(C(=O)NCC(F)(F)F)N1CCN(C2CC3CCC2C3)CC1 (centres undefined) | -2 | -3
C=CCNC(=O)C(NC(=O)c1ccc(OC)cc1)C1CCN(C(=O)COC)CC1 (centres undefined) | -4 | 4
COC(=O)C1(NC(=O)CCCc2ncc(-c3ccccc3)o2)CCCCC1 | 3 | 1
Cn1c(=O)[nH]c(=O)c2c1nc1n2CCCN1CCc1ccccc1 | 0 | 6
CC(C)n1ccc(CNC(=O)NCCc2cc3ccccc3o2)n1 | -3 | -5
O=C(Nc1ccc(N2CCCCC2)cc1)N(CCCO)Cc1ccncc1 | 1 | -4
CN(C)c1ccc(NC(=O)c2c3c(nn2C2CCS(=O)(=O)C2)CCC3)cc1 (centres undefined) | 12 | 11
CCCCc1ccc(NC(=O)CSc2nc(=O)n(CCN(C)C)c3c2CCCC3)cc1 | -1 | 2
Cc1ccc(C2(O)CCN(C(=O)C(C)Cn3cccn3)CC2)nc1 (centres undefined) | -3 | -3
Cc1cccc2nc(C(=O)NCC(C(C)C)N3CCOCC3)cn12 (centres undefined) | 3 | 1
O=C(C1CCCC1)N1CCN(Cc2ccc(-c3noc(-c4ccccc4)n3)cc2)CC1 | 7 | -1
Clc1ccc(C(Cn2ccnc2)OCc2csc3c(Cl)cccc23)c(Cl)c1 (centres undefined) | 0 | -8
Cc1cccc(COc2cccc(C(=O)NCC(C)(C)N3CCOCC3)c2)c1 | -1 | -2
CC(Sc1nc2ccccc2s1)C(=O)N/N=C\c1ccc(Cl)c(Cl)c1 (centres undefined) | 1 | 8
O=C1NC2(CCCCCCC2)C(=O)N1Cc1csc(Cc2ccccc2)n1 | 10 | 1
COc1cccc2cc(-c3nc4ccccc4[nH]3)/c(=N/NC(=O)c3ccncc3)oc12 | -2 | -5
CC(C)(CCl)C(=O)Nc1cccc(C2SCC(=O)N2c2cccc(F)c2)c1 (centres undefined) | -4 | -2
C#CCOCC(O)CN(Cc1cccc(F)c1)CC1CC(c2ccc(F)cc2)=NO1 (centres undefined) | -4 | -4
O=C1CC(CNCc2ccccc2-n2cccn2)c2ccccc2N1 (centres undefined) | 11 | 6
COc1cc(Cl)c(C)cc1NC(=O)CNC(c1ccc(Cl)cc1)C1CC1 (centres undefined) | -1 | -2
CN(C)Cc1cn(C2CCN(C(=O)c3ccc4nc[nH]c4c3)CC2)nn1 | -1 | -3
COCCC1CCCCN1C(=O)c1ccccc1NCc1cccs1 (centres undefined) | 3 | -1
CC(C)C(NC(=O)N(C)CC1CCC1)c1nnc2n1CCC2 (centres undefined) | 3 | 3
CCN1CCc2nc3ccccc3c(C(=O)NCC3CCOC3)c2C1 (centres undefined) | 3 | 3
COc1ccc2nc(SCCO)nc(C)c2c1 | -12 | -16
C=CC(=O)NCc1cccc(-c2ncc(-c3ccc(F)cc3)[nH]2)c1 | 1 | 1
CN(CC(=O)Nc1cc(F)cc(F)c1)Cc1cnc2ccccn12 | 4 | 3
COc1ccc(OC)c2[nH]c(=O)c(CCNC(=O)c3ccccc3)cc12 | 0 | 38
CC(C(=O)N(C)C)S(=O)(=O)c1cc2c(cc1Cl)OCCO2 (centres undefined) | 2 | 1
Cn1c(=O)c(-c2ccccc2N)nc2cc3ccccc3cc21 | -1 | -3
CCOC(=O)CCN1/C(=C\C=C2/SC(=S)N(C)C2=O)Sc2ccc(OC)cc21 | -12 | -15
N#CC1C(=N)OC2=C(C(=O)CCC2)C1c1ccc(C(F)(F)F)cc1 (centres undefined) | 1 | -5
Cc1ccc(C=C(C(=O)c2ccccc2)c2nc3ccccc3o2)o1 | 3 | 1
CNC(=O)Cc1noc(-c2cc(Br)cc3ccccc23)n1 | -1 | -1

Some of the entries so far, with two lines to a compound.
Values run as follows: NPYLR7 agonist | NPYLR7 agonist max-min
CC(Sc1nc2ccccc2s1)C(=O)N/N=C\c1ccc(Cl)c(Cl)c1 (centres undefined)
  1 | 8
O=C1NC2(CCCCCCC2)C(=O)N1Cc1csc(Cc2ccccc2)n1
  10 | 1
COc1cccc2cc(-c3nc4ccccc4[nH]3)/c(=N/NC(=O)c3ccncc3)oc12
  -2 | -5
CC(C)(CCl)C(=O)Nc1cccc(C2SCC(=O)N2c2cccc(F)c2)c1 (centres undefined)
  -4 | -2
C#CCOCC(O)CN(Cc1cccc(F)c1)CC1CC(c2ccc(F)cc2)=NO1 (centres undefined)
  -4 | -4
O=C1CC(CNCc2ccccc2-n2cccn2)c2ccccc2N1 (centres undefined)
  11 | 6
COc1cc(Cl)c(C)cc1NC(=O)CNC(c1ccc(Cl)cc1)C1CC1 (centres undefined)
  -1 | -2
CN(C)Cc1cn(C2CCN(C(=O)c3ccc4nc[nH]c4c3)CC2)nn1
  -1 | -3
COCCC1CCCCN1C(=O)c1ccccc1NCc1cccs1 (centres undefined)
  3 | -1
CC(C)C(NC(=O)N(C)CC1CCC1)c1nnc2n1CCC2 (centres undefined)
  3 | 3
CCN1CCc2nc3ccccc3c(C(=O)NCC3CCOC3)c2C1 (centres undefined)
  3 | 3
COc1ccc2nc(SCCO)nc(C)c2c1
  -12 | -16
C=CC(=O)NCc1cccc(-c2ncc(-c3ccc(F)cc3)[nH]2)c1
  1 | 1
CN(CC(=O)Nc1cc(F)cc(F)c1)Cc1cnc2ccccn12
  4 | 3
COc1ccc(OC)c2[nH]c(=O)c(CCNC(=O)c3ccccc3)cc12
  0 | 38
CC(C(=O)N(C)C)S(=O)(=O)c1cc2c(cc1Cl)OCCO2 (centres undefined)
  2 | 1
Cn1c(=O)c(-c2ccccc2N)nc2cc3ccccc3cc21
  -1 | -3
CCOC(=O)CCN1/C(=C\C=C2/SC(=S)N(C)C2=O)Sc2ccc(OC)cc21
  -12 | -15

Carrying on.
SMILES | NPYLR7 agonist | NPYLR7 agonist max-min
O=C(c1csc(-c2ccc(Cl)cc2)n1)N1CCN(S(=O)(=O)c2ccc(F)cc2)CC1 | 2 | 1
O=c1[nH]c2ccccc2c2nnc(Cc3ccccc3)c(=O)n12 | -9 | -10
CC(C)NC(=O)[C@@]1(OCc2cccc(Cl)c2)CC(OCc2cccc(F)c2F)[C@@H]2OC(C)(C)O[C@@H]2C1 (some centres undefined) | -4 | -15
CC(C)Oc1ccc(C(=O)Nc2nn(C)c3c2C(C)CC(=O)N3)cc1 (centres undefined) | -19 | -22
C/C(=C/C(=O)Nc1n[nH]c(S(C)(=O)=O)n1)c1ccccc1Cl | 9 | 5
O=C(Nc1ccc(SCCN2CCOCC2)nn1)c1ccco1 | 15 | 8
Cc1nnc(SCCNC(=O)C2CCN(c3nc(C)c4cc(C(C)C)ccc4n3)CC2)s1 | 15 | 1
COc1ccccc1Nc1nc(Cl)nc(Sc2nc(C)cc(C)n2)n1 | 0 | -4
CC(C)(C)c1ccc(-c2ccnc3nc(N4CCN(S(=O)(=O)c5cccc(C(F)(F)F)c5)CC4)nn23)cc1 | 6 | 2
Cn1ccc(CC(=O)NC2CC(C)(C)Cc3c2cnn3-c2cccc(F)c2)c1 (centres undefined) | 12 | 6
CCOc1ccc(S(=O)(=O)Oc2cccc(C=NN=C3NC(=O)C(C)(C)S3)c2)cc1 | -1 | -6
CN(CCO)CC(O)Cn1c2ccc(Br)cc2c2cc(Br)ccc21 (centres undefined) | -3 | -4
CN(CC1CCN(CCc2ccc(F)cc2)CC1)C(=O)CC1CCC(=O)N1 (centres undefined) | 1 | -3
COc1ccc(OCCN2CCC(C(=O)NC(c3ccc(Cl)cc3)c3ncccc3C)CC2)cc1 (centres undefined) | 16 | 2
Cc1cc(C)cc(NC(=O)CC(=O)N2CCC3(CC2)C(=O)NCCN3C)c1 | 7 | 5
Cc1ncnc(N2CCCC(CO)(Cc3ccc(F)cc3)C2)c1C (centres undefined) | 12 | 8
FC(F)(F)c1cnc(NCCCN2CCOCC2)c(Cl)c1 | -1 | -5
CCOC1CC(NC(=O)c2nc3nccc(C)n3n2)C12CCC2 (centres undefined) | 0&-3 | -1
CN(CC1OCCO1)C(=O)C1CCN(Cc2c(-c3ccc4c(c3)OCO4)nc3ncccn23)CC1 | 0 | 20
O=C(NCc1ccccc1Br)c1cncn1-c1cccc(-c2ccccc2C(F)(F)F)c1 | 3 | 3
COCCCN(CC(=O)N(CCc1c[nH]c2ccccc12)Cc1ccc(Cl)c(Cl)c1)C(=O)C1CCCCC1 | 18 | 15
C=CCC1(CC=C)CCCCN1CCn1c(=O)oc2ccccc21 | 2 | 3
Cc1nc(N2CCC(N3CCCCC3)CC2)nc2ccccc12 | 16 | 3
COCCN(Cc1ccc(Br)cc1)Cc1cccn1Cc1cccc(C)c1 | 20 | 24
COc1ccccc1CNC(=O)N(C)Cc1nc2ccccc2[nH]1 | 3 | 0
NC(=S)NN=C1CCCC1c1ccccn1 (centres undefined) | 8 | 8
CCCNc1nc(SC)nc2c1cnn2CCNC(=O)Cn1cnc2ccccc21 | 2 | 2
NC(=O)Cn1ccn(-c2ccc3c(c2)OCO3)c(=O)c1=O | 12 | 14

A portion of the library (hit frequency here may not be typical).
